Compound activity as filed in PubChem BioAssay.
NOMO-1 viab: STK33 inhibitor candidate reducing NOMO-1 cell viability; NOMO-1 AML viability, CellTiter-Glo luminescence, 72 h; inhibition, % (test concentration not listed); actives 7.5% (n = 37,000); AID 2330;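 active means most replicates above 80%; inconclusive means exactly half above 80%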;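 further: wells of about 30 µL received 25 nL stock; 0% = median of vehicle wells and 100% = reference inhibitor level; the first replicate is given; inactives centre near 10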
* hit, by the source's call; ? = inconclusive. Not all compounds are listed. The share of hits here may be higher or lower than overall.

SMILES	NOMO-1 viab
Cc1noc(C)c1NC(=O)Nc1cccc2c1O[C@@H](CN(C)Cc1ccc(Oc3ccccc3)cc1)[C@@H](C)CN([C@H](C)CO)C2=O	36
C[C@@H]1CN([C@@H](C)CO)C(=O)c2cccc(NC(=O)c3nc4ccccc4s3)c2O[C@@H]1CN(C)C(=O)Nc1ccc(F)cc1	21
COC(=O)c1ccccc1NC(=O)c1cccc(NC(=O)COc2ccccc2)c1C	5
C[C@@H]1CN([C@@H](C)CO)C(=O)c2cc(NS(C)(=O)=O)ccc2O[C@H]1CN(C)C(=O)NC1CCCCC1	27
COc1ccc(C2=CC(c3ccccc3)c3ccccc3O2)cc1OC (configuration not stated)	-5
COc1ccc(NC(=O)N(C)C[C@@H]2Oc3ccc(NS(=O)(=O)c4cn(C)cn4)cc3C(=O)N([C@@H](C)CO)C[C@H]2C)cc1	4
COc1ccc(C(=O)CCC(=O)Nc2ccc(C(=O)O)cc2)c(OC)c1	-17
O=C(COc1ccc(S(=O)(=O)N2CCCC2)cc1Cl)Nc1ccccc1	0
C[C@@H]1CN([C@@H](C)CO)C(=O)c2cc(NC(=O)C3CC3)ccc2O[C@@H]1CN(C)S(=O)(=O)c1ccc(F)cc1	-7
O=C(Nc1ccc(Br)cc1)c1ccc(NS(=O)(=O)c2cccc3cccnc23)cc1	3
CC(C)NC(=O)Nc1ccc2c(c1)C(=O)N([C@@H](C)CO)C[C@@H](C)[C@H](CN(C)Cc1ccc(C(=O)O)cc1)O2	-17
COc1ccc(CN(C)C[C@@H]2Oc3ccc(NC(=O)Nc4ccc(OC)cc4)cc3C(=O)N([C@@H](C)CO)C[C@H]2C)cc1	-12
C[C@@H]1CN([C@H](C)CO)C(=O)c2cc(NC(=O)C3CC3)ccc2O[C@H]1CN(C)C(=O)NC1CCCCC1	19
O=C(CN1C(=O)c2ccccc2S1(=O)=O)Nc1c(F)cccc1F	8
FC(F)(F)c1nnc(Nc2cccnc2)s1	-22
S=C1NCN(C2CCCCC2)CN1	13
Cn1c2ccccc2c2nnc(SCCN3CCCCC3)nc21	29
C[C@@H]1CN([C@H](C)CO)C(=O)c2cc(NC(=O)NC3CCCCC3)ccc2O[C@H]1CN(C)S(C)(=O)=O	-10
COc1ccc(S(=O)(=O)N(C)C[C@@H]2Oc3ccc(NC(=O)CCCN(C)C)cc3C(=O)N([C@H](C)CO)C[C@@H]2C)cc1	1
Cc1cc(C)cc(N(C(C)C(=O)NC2CCCC2)S(C)(=O)=O)c1 (configuration not stated)	12

A different layout for part of the listing above.
Molecule | NOMO-1 viab
O=C(CN1C(=O)c2ccccc2S1(=O)=O)Nc1c(F)cccc1F | 8
FC(F)(F)c1nnc(Nc2cccnc2)s1 | -22
S=C1NCN(C2CCCCC2)CN1 | 13
Cn1c2ccccc2c2nnc(SCCN3CCCCC3)nc21 | 29
C[C@@H]1CN([C@H](C)CO)C(=O)c2cc(NC(=O)NC3CCCCC3)ccc2O[C@H]1CN(C)S(C)(=O)=O | -10

Further records.
SMILES	NOMO-1 viab
C[C@@H]1CCCCO[C@@H](CN(C)S(=O)(=O)c2ccc(Cl)cc2)[C@@H](C)CN([C@H](C)CO)C(=O)c2cc(NC(=O)Nc3ccc(C(F)(F)F)cc3)ccc2O1	23
Cc1ccc(NC(=O)CN(C)S(=O)(=O)c2ccc(Br)cc2)cc1C	-24
C[C@@H]1CN([C@H](C)CO)C(=O)c2cccc(NS(=O)(=O)c3ccc(Cl)cc3)c2O[C@H]1CN(C)S(=O)(=O)c1ccc(F)cc1	-1
C[C@@H]1CCCCO[C@H](CN(C)C(=O)c2ccncc2)[C@@H](C)CN([C@H](C)CO)C(=O)c2cc(NC(=O)c3ccncc3)ccc2O1	0
C[C@@H]1CN([C@H](C)CO)C(=O)Cc2cc(NC(=O)C3CCCCC3)ccc2O[C@H]1CN(C)Cc1ccc(-c2ccccc2)cc1	56
C[C@@H]1CN([C@@H](C)CO)C(=O)c2cc(NS(=O)(=O)c3ccccc3)ccc2O[C@@H]1CN(C)S(C)(=O)=O	23
COc1ccc(Cl)cc1NC(=S)NCCn1cc(Cl)cn1	-9
Cc1cc(C)c(NC(=O)CN(c2ccc(Cl)cc2C)S(C)(=O)=O)c(C)c1	9
COc1ccc(C(C)NC(=O)c2cc(-c3ccccn3)nc3ccc(Br)cc23)cc1OC (configuration not stated)	90*
CC1(C)c2ccccc2N(CCC(N)=O)C12C=Cc1c(ccc3ccccc13)O2 (configuration not stated)	88*
C[C@@H]1CN([C@H](C)CO)C(=O)c2cc(NC(=O)Nc3ccc(C(F)(F)F)cc3)ccc2O[C@H]1CN(C)S(C)(=O)=O	5
O=C(COc1ccc2c(=O)c(-c3ccccc3)coc2c1)Nc1ccc(F)cc1	-12
C[C@@H]1CN([C@@H](C)CO)C(=O)Cc2cc(NS(C)(=O)=O)ccc2O[C@@H]1CN(C)C(=O)Nc1ccccc1	15
C[C@H](CO)N1C[C@H](C)[C@H](CN(C)C(=O)Nc2ccc3c(c2)OCO3)Oc2c(NS(=O)(=O)c3cccs3)cccc2C1=O	20
C[C@@H]1CN([C@@H](C)CO)C(=O)Cc2cc(NS(=O)(=O)c3cccs3)ccc2O[C@@H]1CN(C)C	41
Cc1noc(C)c1NC(=O)Nc1cccc2c1O[C@H](CN(C)S(=O)(=O)c1ccccc1)[C@H](C)CN([C@@H](C)CO)C2=O	5
COc1ccccc1NC(=O)CSc1ncnc2sc(-c3ccccc3)cc12	43
COc1ccc(S(=O)(=O)Nc2ccc3c(c2)CC(=O)N([C@@H](C)CO)C[C@H](C)[C@@H](CN(C)C(=O)Nc2ccc(C(F)(F)F)cc2)O3)cc1	10
O=C(CSc1n[nH]c(=O)n1-c1cccc(C(F)(F)F)c1)N1CCC(C(F)(F)F)CC1	-30
C[C@@H]1CCCCO[C@@H](CN(C)S(=O)(=O)c2cn(C)cn2)[C@@H](C)CN([C@H](C)CO)C(=O)c2cc(NS(=O)(=O)c3cccs3)ccc2O1	7
Cc1ccc(C)c(NC(=O)CSc2nc(-c3ccccc3)cc(C(F)(F)F)n2)c1	27
C[C@@H]1CN([C@H](C)CO)C(=O)c2cc(NC(=O)Nc3ccc(F)cc3)ccc2O[C@H]1CN(C)Cc1ccc(Oc2ccccc2)cc1	71
CCCN(C)C[C@@H]1OCCCC[C@@H](C)Oc2ccc(NS(C)(=O)=O)cc2C(=O)N([C@H](C)CO)C[C@@H]1C	2
CCn1c(C)nc2c(=O)oc3ccccc3c21	9
C[C@H]1CN([C@@H](C)CO)C(=O)c2cccc(NC(=O)C3CCOCC3)c2O[C@@H]1CN(C)C(=O)Nc1ccc(F)cc1	6
CCOc1ccccc1N1C(=O)CN=C1Nc1nc(C)cc(C)n1	-23
Cc1noc(C)c1S(=O)(=O)Nc1ccc2c(c1)CC(=O)N([C@@H](C)CO)C[C@H](C)[C@H](CN(C)S(=O)(=O)c1cn(C)cn1)O2	-5
Cc1ccc(S(=O)(=O)Nc2ccc3c(c2)C(=O)N([C@H](C)CO)C[C@@H](C)[C@H](CN(C)C(=O)Nc2cccc4ccccc24)O3)cc1	-6
N#C/C(=C\Nc1ccc(F)c(Cl)c1)S(=O)(=O)Cc1ccco1	28
Cn1c(SCC(=O)Nc2ccccc2Cl)nnc1-c1cccnc1	-4

4 records picked at random from those above:
SMILES	NOMO-1 viab
O=C(COc1ccc(S(=O)(=O)N2CCCC2)cc1Cl)Nc1ccccc1	0
C[C@@H]1CN([C@@H](C)CO)C(=O)c2cccc(NC(=O)c3nc4ccccc4s3)c2O[C@@H]1CN(C)C(=O)Nc1ccc(F)cc1	21
C[C@H]1CN([C@@H](C)CO)C(=O)c2cccc(NC(=O)C3CCOCC3)c2O[C@@H]1CN(C)C(=O)Nc1ccc(F)cc1	6
CC1(C)c2ccccc2N(CCC(N)=O)C12C=Cc1c(ccc3ccccc13)O2 (configuration not stated)	88*

The listing continues:
SMILES	NOMO-1 viab
O=C(CSc1nnc(-c2ccncc2)n1-c1ccccc1)Nc1ccc(C(F)(F)F)cc1	17
C[C@H]1CN([C@@H](C)CO)C(=O)c2cccc(NS(=O)(=O)c3cn(C)cn3)c2O[C@@H]1CN(C)CC1CC1	14
CCCC1=NN(C(=O)/C=C/c2cccs2)C(=O)C1Cc1c(F)cccc1Cl (configuration not stated)	52
C[C@H](CO)N1C[C@H](C)[C@H](CN(C)Cc2ccc(C(=O)O)cc2)Oc2ccc(NC(=O)Nc3ccccc3)cc2CC1=O	5
C[C@@H]1CCCCO[C@@H](CN(C)C(=O)Nc2ccc(C(F)(F)F)cc2)[C@@H](C)CN([C@H](C)CO)C(=O)c2cc(NS(=O)(=O)c3ccc(Cl)cc3)ccc2O1	?
Nc1nnc(SCC(=O)Nc2cccc(Cl)c2Cl)s1	55
C[C@H]1CN([C@@H](C)CO)C(=O)c2cc(N(C)C)ccc2O[C@H]1CN(C)Cc1ccc(C(=O)O)cc1	-4
COc1nc(OCCNS(=O)(=O)c2ccc(C)cc2)nc(N(C)C)n1	10
COc1ccc(-c2nnc(SCC(N)=O)n2C)cc1OC	-4
Cc1ccc(S(=O)(=O)Nc2ccc3c(c2)CC(=O)N([C@H](C)CO)C[C@@H](C)[C@H](CN(C)CC2CCCCC2)O3)cc1	84*
C[C@H](CO)N1C[C@H](C)[C@H](CN(C)Cc2ccc(-c3ccccc3)cc2)Oc2c(NS(=O)(=O)c3ccc(F)cc3)cccc2C1=O	72
O=C(CC1NC(=O)NC1=O)Nc1ccc(F)cc1 (configuration not stated)	-22
C[C@@H]1CN([C@H](C)CO)C(=O)Cc2cc(N(C)C)ccc2O[C@@H]1CN(C)C(=O)NC1CCCCC1	6
COc1ccc(-c2nc3ccc4ccccc4c3c3c2CCCC3)cc1	33
Cc1ccc(S(=O)(=O)N(C)CC(=O)Nc2cc([N+](=O)[O-])ccc2C)cc1	-11
COc1ccccc1N(C(=O)NCc1ccccc1)C1=NCC(C)S1 (configuration not stated)	4
CC1CN(S(=O)(=O)c2cccc(C(=O)O)c2)CC(C)O1 (configuration not stated)	-1
COc1cc(NC(=O)CCCN2C(=O)c3ccccc3C2=O)c(OC)cc1Cl	42
C[C@H]1CN([C@@H](C)CO)C(=O)c2cc(NS(=O)(=O)c3ccccc3)ccc2O[C@@H]1CN(C)C(=O)Nc1cccc2ccccc12	14
CCn1c(SCC(=O)Nc2cc(C)c(Cl)cc2OC)nnc1-c1cnccn1	-11
C[C@@H]1CN([C@H](C)CO)C(=O)c2cccc(NS(=O)(=O)c3ccccc3)c2O[C@@H]1CN(C)CC1CCCCC1	-9
CN(CC(=O)Nc1ncn[nH]1)S(=O)(=O)c1ccc(Br)cc1	-3
COC(=O)CSc1cc(C)nc(SC)n1	1
Cc1ccc(C)c(NC(=O)CCCn2cc([N+](=O)[O-])cn2)c1	14
Cc1noc(C)c1NC(=O)Nc1ccc2c(c1)C(=O)N([C@@H](C)CO)C[C@@H](C)[C@H](CN(C)Cc1ccc(Cl)c(Cl)c1)O2	37
CCc1nc(SCC(=O)Nc2cccc(C(F)(F)F)c2)c(C#N)cc1C	-6
C[C@H]1CN([C@@H](C)CO)C(=O)c2cccc(NC(=O)c3cnccn3)c2O[C@@H]1CN(C)C(=O)Nc1ccccc1	0
COc1ccc(S(=O)(=O)N(C)C[C@@H]2Oc3c(NC(=O)c4cnccn4)cccc3C(=O)N([C@H](C)CO)C[C@@H]2C)cc1	34
C[C@H]1CN([C@@H](C)CO)C(=O)c2cc(NC(=O)Nc3cccc4ccccc34)ccc2O[C@@H]1CN(C)Cc1ccc(Oc2ccccc2)cc1	121*
COc1ccc(-c2nnc(SCC(=O)c3ccc(C)o3)o2)cc1	0
O=C(CSc1nnc(-c2ccc(Cl)cc2)n1-c1ccc(F)cc1)N1CCOCC1	10
C[C@@H]1CN([C@H](C)CO)C(=O)c2cccc(NC(=O)C3CCOCC3)c2O[C@@H]1CN(C)S(=O)(=O)c1cn(C)cn1	3
COc1ccc(NC(=O)N(C)C[C@@H]2Oc3c(NC(=O)Nc4c(C)noc4C)cccc3C(=O)N([C@H](C)CO)C[C@H]2C)cc1	10
C[C@@H]1CN([C@H](C)CO)C(=O)Cc2cc(NC(=O)c3ccncc3)ccc2O[C@H]1CN(C)Cc1ccncc1	10
CNC[C@H]1Oc2ccc(NC(=O)Cc3ccccc3)cc2C(=O)N([C@@H](C)CO)C[C@H]1C	7
C[C@@H]1CN([C@@H](C)CO)C(=O)c2cc(NS(=O)(=O)c3ccccc3)ccc2O[C@@H]1CN(C)C(=O)Nc1ccc(C(F)(F)F)cc1	13
CCOC(=O)c1ccc(NC(=O)Cn2c(=O)oc3ccccc32)cc1	-5
C[C@@H]1CN([C@@H](C)CO)C(=O)c2cc(NS(=O)(=O)c3ccc(F)cc3)ccc2O[C@@H]1CN(C)Cc1ccncc1	-7
C[C@@H]1CN([C@@H](C)CO)C(=O)c2cccc(NC(=O)Nc3ccc(C(F)(F)F)cc3)c2O[C@@H]1CN(C)C(=O)Nc1ccc(F)cc1	50
C[C@H]1CN([C@@H](C)CO)C(=O)Cc2cc(NC(=O)C3CCCCC3)ccc2O[C@H]1CN(C)C(=O)Nc1ccc2c(c1)OCO2	-15
C[C@H](CO)N1C[C@H](C)[C@H](CN(C)Cc2ccncc2)Oc2c(NC(=O)c3nc4ccccc4s3)cccc2C1=O	88*
COc1cc2[nH]c(=S)n(CCc3cnc[nH]3)c(=O)c2cc1OC	5
